Assay outcomes as filed in PubChem BioAssay.
miR-21 reporter: qHTS Assay for Modulators of miRNAs and/orActivators of miR-21; HeLa miR-21 FLuc reporter, luciferase, 48 h; Potency, µM (highest dose often 38.3 µM), for the others: at the top dose reporter change, positive = more light; 340,000 tested, under 10 active; AID 2288, 2010; active = well fitted rising curve with a large enough effect; inconclusive = small, poorly fitted or top-dose-only effect; inactive = no such curve, though single readings can be large or run the other way;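 further: % of control where 0% means no effect; miR-21 action dims this reporter so a rising signal means less miR-21 action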
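Compounds were titrated across several concentrations (up to approximately 40 uM) and incubated 48 hours with HeLa miR-21-FLuc reporter cells (miR-21 target sequence downstream of FLuc, endogenous miR-21). Readout was firefly luciferase luminescence after lytic detection reagent.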
Rango complex inh: qHTS Assay for Inhibitors of Rango (Ran-regulated importin-beta cargo) - Importin beta complex formation; Rango CFP/YFP FRET sensor + importin beta, 45 min; Importin subunit beta-1 (Homo sapiens), Q14974; 340,000 compounds, 0.031% hits; Potency, µM (doses to about 92.2 µM), for the others: at the top dose inhibition of complex formation; AID 540263, 2011; active = rising FRET ratio curve, often small or poorly fitted; inconclusive = mostly compound fluorescence or quenching in the first reads; inactive = flat curves in all reads;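 further: potency means the concentration at half of the fitted maximal effect; 0% = DMSO wells and 100% = buffer wells lacking importin beta; nearly all actives have a fitted effect of over 15% in size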
Target sequence (Q14974 whole entry, looked up): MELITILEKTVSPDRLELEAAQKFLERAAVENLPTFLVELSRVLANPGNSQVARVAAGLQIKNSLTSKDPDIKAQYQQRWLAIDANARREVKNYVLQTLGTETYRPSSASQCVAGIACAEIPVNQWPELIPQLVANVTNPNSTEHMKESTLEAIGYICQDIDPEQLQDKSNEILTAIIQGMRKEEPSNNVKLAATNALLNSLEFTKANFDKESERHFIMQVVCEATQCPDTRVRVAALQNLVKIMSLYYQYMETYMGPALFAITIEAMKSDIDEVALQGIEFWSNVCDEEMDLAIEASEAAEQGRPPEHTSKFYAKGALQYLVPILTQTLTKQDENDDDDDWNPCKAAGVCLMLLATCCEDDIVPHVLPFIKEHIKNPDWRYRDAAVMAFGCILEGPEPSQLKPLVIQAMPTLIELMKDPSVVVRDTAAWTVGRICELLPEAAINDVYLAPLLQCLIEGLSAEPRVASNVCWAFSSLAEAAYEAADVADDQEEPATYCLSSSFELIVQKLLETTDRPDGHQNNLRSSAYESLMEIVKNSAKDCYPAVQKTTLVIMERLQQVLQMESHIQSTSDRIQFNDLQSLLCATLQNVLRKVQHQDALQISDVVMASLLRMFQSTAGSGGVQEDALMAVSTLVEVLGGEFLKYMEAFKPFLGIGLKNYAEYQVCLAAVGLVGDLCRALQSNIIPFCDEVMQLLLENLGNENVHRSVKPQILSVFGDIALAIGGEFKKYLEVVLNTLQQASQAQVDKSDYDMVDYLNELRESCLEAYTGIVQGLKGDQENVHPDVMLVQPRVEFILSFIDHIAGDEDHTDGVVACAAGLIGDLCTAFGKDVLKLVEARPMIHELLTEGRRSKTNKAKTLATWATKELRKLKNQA
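Inhibition scored from the CFP 486 nm/YFP 530 nm FRET ratio 45 min after adding 0.125 microM importin beta to 50 nM Rango biosensor preincubated 5 min with compound (room temperature, PBS with DTT, Tween-20, BSA). No-importin wells as positive control.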
GLA inh pH 4.5: qHTS Assay for Inhibitors of Human alpha-Galactosidase at pH 4.5. Alpha-galactosidase A (Homo sapiens), P06280. purified enzyme, 4-MU-alpha-Gal fluorescence, pH 4.5. activity change, negative = inhibition, % at 105 µM. 230,000 tested, under 10 active. AID 1467, 2008; inconclusive = small, poorly fitted or top-dose-only inhibition, or a rising curve; inactive = flat fitted curve, though single readings scatter; no compound was filed as active;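 further: 0% = full activity with enzyme and -100% = basal without enzyme; dose as in the result columns while the protocol names 77 µM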
Rango release inh: qHTS Assay for Inhibitors of RanGTP induced Rango (Ran-regulated importin-beta cargo) - Importin beta complex dissociation. 340,000 compounds, 0.071% hits. Snurportin-1 (Homo sapiens) + GTP-binding nuclear protein Ran (Homo sapiens) + Importin …. Potency, µM (doses to about 46.1 µM), inactives show top-dose activity change, negative = inhibition. Biochemical FRET Rango-importin beta, RanGTP-induced dissociation; active means falling FRET ratio curve, often poorly fitted, with flat reads before Ran was added; inconclusive means other falling curves, or compound fluorescence or quenching; inactive means flat or rising ratio curve;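 further: potency means the concentration at half of the fitted maximal effect; % of control where 0% means no effect; nearly all actives have a fitted effect of over 45% in size; -100% = wells without RanGTP and RCC1; the record marks most hits as doubtful in a second field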
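Recombinant Rango FRET biosensor (EYFP–snurportin 1 IBB–cerulean CFP10) at 0.1 uM premixed with 0.25 uM importin beta in PBS, 1 mM DTT, 0.02% Tween-20, 0.1% BSA. Compound added 5 min; RanGTP-RCC1 (0.6 uM Ran, 2 mM GTP, 0.2 uM RCC1) then triggers release, read at 45 min.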
Starred values were filed as active, the others as inactive; ? = inconclusive; nt = no result given; & = joins results of further samples.

mol | GLA inh pH 4.5 | Rango release inh | miR-21 reporter | Rango complex inh
COc1ccc(N2Cc3ccccc3C2)cc1Cl | 1 | 3% | -46% | -1.4%
COC(=O)c1ccc(CSc2nc3sc(C)c(C)c3c(=O)[nH]2)cc1 | 1 | 16% | -3% | -3.2%
CC(C)CC[n+]1ccn(-c2nc3ccccc3nc2[N-]S(=O)(=O)c2ccc(Cl)cc2)c1 | 7 | -24% | 1% | ?
CCCN1Cc2cccc(C(=O)NCCc3ccccc3)c2C1=O | nt | -20% | -8% | ?
CCCOc1ccc(/C=c2\sc3ncnn3c2=O)cc1 | -1 | ? | -12% | 2.1%
NNC(=O)CCC(=O)Nc1ccccc1 | 4 | 17% | 0% | -0.8%
CCCCOc1ccccc1C1C(C(=O)OC)=C(C)N(C)C(C)=C1C(=O)OC | -26 | -9% | -7% | 0.0%
Cn1cc(C(=O)NC2CCCCC2)c(=O)c2cc(S(=O)(=O)N3CCOCC3)ccc21 | nt | 3% | -2% | -2.9%
CCOC(=O)c1c(NC(=O)COC(=O)Cc2c[nH]c3ccccc23)sc(C(=O)N(C)C)c1C | nt | 0% | nt | ?
CSCC[C@H](NC(=O)COc1ccc(Cl)cc1)C(=O)N1CCC2(CC1)NCCc1[nH]cnc12 | nt | 0% | 0% | ?
O=[N+]([O-])c1ccc(O)c(-c2nc(-c3ccccc3)c(-c3cccs3)[nH]2)c1 | -18 | 4% | 6% | 0.9%
COC(=O)Cc1c(-c2[nH]c3ccccc3c2CC(=O)OC)[nH]c2ccccc12 | nt | -26% | nt | -5.9%
COc1cc2c(cc1NC(=O)CC1SC(N3CCCC3)=NC1=O)oc1ccccc12 (stereo unspecified) | -27 | -8% | 7% | -1.7%
Cc1ccc(N2C(=O)CC3(CC4C=CC3C4)C2=O)cc1 (stereo unspecified) | 3 | -1% | -25% | -0.6%
COc1cc(/C=N/Nc2ccccc2C(F)(F)F)ccc1O | 0 | -19% | -64% | -0.7%
CC(CCn1cccn1)NC(=O)CCc1nnc(C2CCCCC2)o1 (stereo unspecified) | 6 | 13% | -2% | 4.1%
O=C(Cn1nnc(-c2cccs2)n1)Nc1ccccc1C(F)(F)F | 2 | -2% | -4% | -0.5%
C=CCNC(=O)c1onc(CSc2ccc(F)c(F)c2)c1C(=O)O | -24 | -6% | 6% | 1.8%
CCOC(=O)c1ccc(NS(=O)(=O)c2c(C)n(C)c(=O)n(C)c2=O)cc1 | 3 | 37% | -7% | 0.9%
COC(=O)Cc1cn(-c2ncc(C(F)(F)F)cc2Cl)c2ccccc12 | -10 | -3% | -7% | 2.3%
CC1CCc2nn(CC(=O)Nc3c(F)cc(F)cc3Br)cc2C1 (stereo unspecified) | 0 | 2% | -15% | 0.7%
CC(C)C(=O)N1CCN(c2ccccc2NC(=O)COc2ccccc2)CC1 | 2 | 32% | 4% | 0.5%
O=C(Nc1ccc(F)cc1)Nc1cc(OCC(F)(F)F)cc(OCC(F)(F)F)c1 | 0 | 19% | ? | ?
NC1=NC[C@@H](Cc2ccc(O)cc2)N1CCc1cccc(F)c1 | 7 | 8% | -2% | -2.0%
Cc1noc(C)c1COC(=O)CCN1c2ccccc2Sc2ccccc21 | 11 | -18% | -7% | -2.2%
CCN(CC)S(=O)(=O)c1cccc(C(=O)N/N=C/c2ccc(OC)c(O)c2)c1 | 2 | -3% | -1% | 0.2%
CC1CCC(C(C)C)C(OC(=O)COC(=O)c2ccc(N)cc2)C1 (stereo unspecified) | -15 | 1% | -1% | 1.4%
Cc1ccc(NC(=O)c2cccs2)cc1NC(=O)c1ccc(F)cc1 | nt | 4% | -2% | 1.6%
Cc1ccc(C)c(C(=O)COC(=O)c2ccc(Br)o2)c1 | 2 | -12% | -9% | -2.5%
O=C(ONC1=NCCCCC1)c1c(F)cccc1F | -2 | -11% | 7% | -1.7%
Cc1ccc2nc(-c3ccc(NS(=O)(=O)c4ccc(F)c(F)c4)cc3)sc2c1 | ? | ? | -30% | ?
CCN(CC)S(=O)(=O)c1cccc(NC(=O)COC(=O)c2cc(=O)c3ccccc3o2)c1 | -19 | 10% | -1% | -0.6%
COC(=O)c1ccc(N/C=C/C(=O)c2ccc(OC)c(OC)c2)cc1 | 7 | ? | -2% | ?
Cc1ccc(C)c(S(=O)(=O)N2CCN(C(=O)c3cc(-c4cccs4)nn3-c3ccccc3)CC2)c1 | nt | -10% | nt | 0.6%
CC(C)[C@@H](C(=O)N1CCN(Cc2ccc3c(c2)OCO3)CC1)n1nnc2ccccc2c1=O | nt | 10% | 17% | -1.3%
CC(C)N(C(=O)[C@H]1C[C@H](CC(=O)NCCCn2ccnc2)C(=O)N2CCc3c([nH]c4ccc(Cl)cc34)[C@]12C)C(C)C | nt | 2% | nt | -3.0%
CNC(=O)C1CN(C(=O)c2cccc(S(=O)(=O)N3c4ccccc4CC3C)c2)c2ccccc2O1 (stereo unspecified) | nt | -11% | nt | -0.2%
O=C(Nn1cnc2ccccc2c1=O)C1CCCCC1 | 1 | -7% | -8% | 2.6%
Cc1ccc(NC2CCCN(C(=O)CN3C(=O)CSC3=O)C2)cc1C (stereo unspecified) | nt | 9% | -1% | -2.7%
Cc1cc(C(=O)N/N=C/c2cc(Br)cc(Br)c2OC(=O)c2ccccc2)n[nH]1 | 2 | nt | -3% | nt
C=CCN1C(=O)C(CC(=O)Nc2ccc(OCCC)cc2)N(CCCN2CCN(Cc3ccccc3)CC2)C1=S (stereo unspecified) | -14 | -17% | ? | 1.0%
COc1ccc(C(=O)Nc2ccccc2N2CCCC2)cc1S(=O)(=O)N1CCOCC1 | nt | 2% | nt | 1.7%
CCOc1ccc(CCNC(=O)CCn2cccc2)cc1OCC | 1 | -6% | -2% | 2.7%
Cc1[nH]c2ccccc2c1/C=N/NC(=O)CCC(=O)NCc1ccccc1 | 4 | -11% | 3% | 0.6%
COc1ccc(CCNC(=O)CSc2nnnn2C)cc1OC | 4 | ? | 6% | 0.8%
CCOC(=O)c1cnc(-n2nc(C)cc2C)nc1Nc1ccc(O)cc1 | -2 | 2% | -1% | -0.1%
COC(=O)C1=C(C)N=c2s/c(=C/c3ccoc3)c(=O)n2C1c1ccccc1 (stereo unspecified) | -2 | ? | 0% | ?
CCOC(=O)/C(CCC[N+](C)(CC)CC)=N\O | -12 | -7% | -10% | 0.3%
Cc1cc(SCC(=O)Nc2cccc(S(=O)(=O)N3CCOCC3)c2)nc2ccccc12 | -10 | 10% | -2% | -2.9%
O=C(COc1cc(Cl)c(Cl)cc1Cl)Nn1cnnc1 | -13 | ? | 0% | -0.2%
O=C(c1ccc(F)cc1Cl)N(c1ccccn1)C1CCCCC1 | -23 | 2% | 3% | 0.8%
CN(CCC#N)C(=O)CSc1nnc(-c2c[nH]c3ccccc23)o1 | nt | 0% | -34% | -1.9%
Cc1cc(SCC(=O)c2cc3ccccc3o2)nc2ccccc12 | 1 | ? | -17% | ?
CN1CCN(S(=O)(=O)c2ccc(=O)[nH]c2)CC1 | -1 | 0% | 1% | 2.1%
O=C(CCl)N(c1ccccc1)c1c[nH]c2ccccc12 | 0 | 3% | ? | 1.3%
O=C(c1ccccc1[N+](=O)[O-])N1N=C(c2ccccc2)CC1(O)C(F)(F)F (stereo unspecified) | nt | 0% | 7% | 0.7%
CCN(CC)S(=O)(=O)c1ccc(Cl)c(C(=O)NCCN2CCOCC2)c1 | nt | 6% | -4% | 3.8%
CC(C)CCn1nnnc1C(c1ccccc1)N1CCN(C)CC1 (stereo unspecified) | -1 | 17% | -1% | -0.9%
O=C1CSC(c2cccc([N+](=O)[O-])c2)N1c1c(F)cccc1F (stereo unspecified) | -5 | 14% | 19% | 2.3%
Cc1ccc(S(=O)(=O)N(CC(=O)N2CCCCCC2)c2ccccc2F)cc1 | nt | -6% | -4% | 2.8%

(more compounds)
mol | GLA inh pH 4.5 | Rango release inh | miR-21 reporter | Rango complex inh
COc1ccc(NC(=O)Cc2ccc(C)cc2)c([N+](=O)[O-])c1 | 6 | -4% | -17% | 1.8%
Cc1ccn(CC(=O)N2N=C(C(F)F)CC2(O)C(F)F)n1 (stereo unspecified) | 7 | -2% | -7% | -6.1%
Cc1cc(NC(=O)COC(=O)C2CCC(=O)N2)c([N+](=O)[O-])cc1C (stereo unspecified) | 1 | ? | -8% | -1.8%
O=c1c2ccccc2nnn1CSc1nnc(-c2cccs2)n1Cc1ccccc1 | -3 | -3% | 18% | -2.5%
CCCCNS(=O)(=O)c1ccc2nc(-c3cccnc3)cc(C(=O)NC3CCCC3)c2c1 | -2 | -10% | -3% | -1.9%
CCOC(=O)c1c(-c2ccc(OC)cc2)cn2ccccc12 | 25 | 0% | 2% | 1.4%
N#CC(C#N)=C1C=CC=CN1/C(=C\c1ccco1)C(=O)c1ccc(Cl)cc1 | 3 | -1% | ? | -5.6%
Cc1ccc(C(=O)NCC(=O)N/N=C/c2cccs2)cc1C | -5 | 3% | -5% | -1.4%
Cc1cc(C)n2nc(C)c(-c3ccccc3)c2n1 | nt | -5% | nt | -2.1%
C=CCN(C(=O)C1=NN(C2CCS(=O)(=O)C2)C(=O)CC1)c1nc(-c2ccc([N+](=O)[O-])cc2)cs1 (stereo unspecified) | 0 | 5% | -32% | 7.9%
CC1CCN(CCCNC(=O)c2ccc3c(=O)n(CCc4ccccc4)c(=O)[nH]c3c2)CC1 | 17 | -3% | -2% | 1.9%
CC(C)(C)NC(=O)CSc1nnc(C2CC2)n1Cc1ccccc1 | -1 | 1% | -10% | ?

Compounds above that have a cyano group:
mol | GLA inh pH 4.5 | Rango release inh | miR-21 reporter | Rango complex inh
CN(CCC#N)C(=O)CSc1nnc(-c2c[nH]c3ccccc23)o1 | nt | 0% | -34% | -1.9%
N#CC(C#N)=C1C=CC=CN1/C(=C\c1ccco1)C(=O)c1ccc(Cl)cc1 | 3 | -1% | ? | -5.6%

The list continues.
mol | GLA inh pH 4.5 | Rango release inh | miR-21 reporter | Rango complex inh
Cc1cc([N+](=O)[O-])cc(/C=N/n2c(C)nc3ccccc3c2=O)c1O | -10 | ? | 9% | ?
CCCC1COC(Cn2cncn2)(c2ccc(C)cc2)O1 (stereo unspecified) | -7 | -7% | -3% | 0.8%
Cn1c(Cn2c(=O)sc3ccccc32)nnc1SCc1ccccc1F | 2 | 1% | -9% | 0.8%
O=C1OC2CCC1(c1ccccc1)C2 (stereo unspecified) | 7 | -3% | -2% | 2.2%
c1ccc(-c2nc(N3CCCCCC3)nc(-n3ccnc3)n2)cc1 | 1 | -13% | 1% | -1.1%
COc1ccc(S(=O)(=O)n2c([N+](=O)[O-])cnc2C)cc1OC | nt | 11% | 1% | -2.3%
O=C(CSCc1ccc(Cl)cc1)N1CCN(Cc2ccc3c(c2)OCO3)CC1 | -5 | -4% | -3% | -5.3%
CCOC(=O)CCNC(C(=O)OCC)c1ccccc1 (stereo unspecified) | 3 | -10% | 1% | -1.7%
O=C(Cc1ccccn1)c1ccc(O)cc1O | nt | 11% | -16% | ?
CCn1nnc(-c2ccccc2NC(=O)c2cccc(-n3cnnn3)c2)n1 | -2 | -7% | -5% | 4.7%
COc1ccc(N(CC(=O)N2CCN(c3ccc(F)cc3)CC2)S(=O)(=O)c2c(C)noc2C)cc1 | nt | 10% | 6%&24% | 6.8%
CC(C)n1c(SC2C(=O)CC(C)(C)CC2=O)nc2c1c(=O)n(C)c(=O)n2C | -5 | 0% | -5% | 0.9%
CCn1cc(C(=O)NCc2ccc3c(c2)OCO3)c(=O)c2cc(F)c(N3CCN(C)CC3)cc21 | 3 | -1% | -15% | 0.1%
COc1cc(NC(=O)C(=O)NCCN(C)C)c(OC)cc1Cl | 1 | 10% | 0% | 0.5%

An excerpt (hit frequency here may not be typical).
